Bioassay records: PubChem, Southern Research Specialized Biocontainment Screening Center
Mtb bLac sens: beta-lactam sensitization of Mtb H37Rv | M. tuberculosis H37Rv growth with meropenem, percent inhibition; hits of this screen are not shown here | inhibition, % at 25 µM | actives 0.27% (n = 330,000);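 active = about 74% or more and at least 40 points above the plate without the antibiotic, then above 30% in a dose series; inconclusive = first-round hits that could not be retested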;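 also: growth measured after seven days incubation then overnight dye step; 0% = bacteria only wells and 100% = bacteria with antibiotic; twin plates without the antibiotic show which effects depend on it; some results filed as inactive read as strong as hits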
Numbers without * were called inactive; ? = inconclusive.

The opening four compounds as a preview:
SMILES	Mtb bLac sens
C=CC[C@@H](CC(=O)N[C@@H](CO)Cc1ccccc1)C(=O)N[C@H](COC(=O)[C@H](CC=C)CC(=O)OC(C)(C)C)Cc1ccccc1	12.0
COC(=O)C1=C(c2ccc(Cl)c(C(F)(F)F)c2)C[C@@H]2CC[C@H]1N2C(=O)N1CCC(C)CC1	6.7
Cc1ccc(S(=O)(=O)N[C@@H](CC(C)C)C(=O)N2CCC(C(=O)N[C@@H](Cc3ccccc3)C(=O)O)CC2)cc1	0.2
CC1CCCCC12NC(=O)N(CC(=O)N1CCN(S(=O)(=O)/C=C/c3ccccc3)CC1)C2=O (centres undefined)	-4.5

The whole of this part, from the first entry:
SMILES	Mtb bLac sens
C=CC[C@@H](CC(=O)N[C@@H](CO)Cc1ccccc1)C(=O)N[C@H](COC(=O)[C@H](CC=C)CC(=O)OC(C)(C)C)Cc1ccccc1	12.0
COC(=O)C1=C(c2ccc(Cl)c(C(F)(F)F)c2)C[C@@H]2CC[C@H]1N2C(=O)N1CCC(C)CC1	6.7
Cc1ccc(S(=O)(=O)N[C@@H](CC(C)C)C(=O)N2CCC(C(=O)N[C@@H](Cc3ccccc3)C(=O)O)CC2)cc1	0.2
CC1CCCCC12NC(=O)N(CC(=O)N1CCN(S(=O)(=O)/C=C/c3ccccc3)CC1)C2=O (centres undefined)	-4.5
CC1CCCN(C(=O)c2cccc(S(=O)(=O)N3CCCC3)c2)C1 (centres undefined)	-4.3
NC(=O)c1ccc(NC(=O)COC(=O)c2cc3ccccc3cc2O)cc1	-1.3
Cc1ccc([C@H]2C(C(=O)O)=CC[C@@H](c3ccc4c(c3)OCO4)N2S(=O)(=O)c2ccc(C)cc2)cc1	5.6
CC(Sc1ccc(Cl)cc1)C(=O)NNC(=O)c1ccncc1 (centres undefined)	98.1
O=C(CCNC(=O)c1ccco1)NCCc1c[nH]c2ccccc12	-10.0
COc1ccc(C(=O)NCC(=O)OCC(=O)N2CC(C)OC(C)C2)cc1OC (centres undefined)	-8.3
CC1CC(=O)Nc2ccccc2N1C(=O)COc1cc(Cl)ccc1Cl (centres undefined)	0.0
COc1ccc(S(=O)(=O)N(C)C)cc1NC(=O)CN1CCN(C(=O)C2CC2)CC1	-5.8
CN(C)S(=O)(=O)c1cccc(NC(=S)NNC(=O)c2cc3ccccc3cc2O)c1	10.9
CCCCN(C(=O)C1CC(=O)N(c2ccc3c(c2)OCCO3)C1)c1c(N)n(CCC)c(=O)[nH]c1=O (centres undefined)	3.1
O=C(OCn1nnc2ccccc2c1=O)c1cccc(S(=O)(=O)N2CCOCC2)c1	-6.0

Part of the list above in order of formula weight, low to high.
SMILES	Mtb bLac sens
CC1CCCN(C(=O)c2cccc(S(=O)(=O)N3CCCC3)c2)C1 (centres undefined)	-4.3
COc1ccc(S(=O)(=O)N(C)C)cc1NC(=O)CN1CCN(C(=O)C2CC2)CC1	-5.8
CCCCN(C(=O)C1CC(=O)N(c2ccc3c(c2)OCCO3)C1)c1c(N)n(CCC)c(=O)[nH]c1=O (centres undefined)	3.1
Cc1ccc([C@H]2C(C(=O)O)=CC[C@@H](c3ccc4c(c3)OCO4)N2S(=O)(=O)c2ccc(C)cc2)cc1	5.6

Remaining list, next part.
SMILES	Mtb bLac sens
COc1ccccc1CNC(=O)COC(=O)c1cc(C)nc2ccccc12	-1.8
C[C@H](NS(=O)(=O)c1ccc(F)cc1)C(=O)OCC(=O)c1c(N)n(C)c(=O)n(C)c1=O	-0.3
O=C(Nc1cc(S(=O)(=O)N2CCOCC2)ccc1Cl)c1cc([N+](=O)[O-])ccc1Cl	8.5
O=C(c1ccc(Cl)cc1)N1CCC2(CC1)OCCO2	-1.9
C=C1CCC(N(O)c2cc(C)on2)C(=C)CCC2C1CC2(C)C (centres undefined)	13.0
CC(OC(=O)c1ccc([N+](=O)[O-])cc1)C(=O)NCC1CCCCC1 (centres undefined)	19.4
CCC(CO)Oc1cc(NCc2cccc(F)c2)c2ncn(C(C)C)c2c1 (centres undefined)	-0.5
CC(C)n1c(/C=C/[C@H](O)C[C@H](O)CC(=O)O)c(-c2ccc(F)cc2)c2ccccc21	-10.7
COc1ccc(C(=O)NC2CCN(S(=O)(=O)c3ccc(C)cc3)CC2)cc1	3.7
Cc1noc(C)c1C(=O)Nc1nc(-c2ccc(F)cc2)cs1	-1.9
Cc1ccc(N2CCN(C(=O)c3cc(COc4c(C)cccc4C)on3)CC2)c(C)c1	33.8
Nc1cc(C(=O)OCC(=O)N2CCC(Cc3ccccc3)CC2)ccc1Cl	2.5
Cc1ccc(S(=O)(=O)N2CCN(C(=O)C(Cc3ccccc3)NC(=O)c3ccccc3)CC2)cc1 (centres undefined)	-0.2
CCc1ccccc1NC(=O)CNC(=O)CNC(=O)C1CCCCC1	-2.1
CC1CCN(C(=O)CCNS(=O)(=O)c2ccc(Br)cc2)CC1	-6.2
Cn1c(N)c(C(=O)COC(=O)c2cccc(S(=O)(=O)N3CCOCC3)c2)c(=O)n(C)c1=O	-2.9
Cc1nnc(NC(=O)c2cc(S(=O)(=O)N3CCCCC3)ccc2Cl)s1	?
CSCCC(NC(=O)c1ccccc1Br)C(=O)N1CCN(C(C)=O)CC1 (centres undefined)	-5.1
O=C(COC(=O)c1cc(S(=O)(=O)N2CCCCC2)ccc1Cl)NC1CCS(=O)(=O)C1 (centres undefined)	-9.7
CC(C)(O)C1CC[C@@](C)([C@@H]2CC[C@]3(C)[C@H]2[C@H](O)CC2[C@@]4(C)CCC(O)C(C)(C)C4C(OC4OC(CO)C(O)C(O)C4O[C@@H]4OCC(O)C(O)C4O)C[C@]23C)O1 (some centres undefined)	0.4
O=C1CCN(Cc2ccccc2)S(=O)(=O)c2ccc(F)cc21	8.9
CC1CCN(C(=O)c2[nH]cnc2C(=O)Nc2ccc(Cl)cc2)CC1	53.4
CCCn1ncc2c(Nc3ccc(C)c(C)c3)ncnc21	1.5
CC(C)CNC(=O)/C=C/C=C/CCCCCC/C=C/c1ccc2c(c1)OCO2	-6.2
O=C1N[C@@H](Cc2c[nH]c3ccccc23)COC(=O)[C@@H](Cc2ccc(F)cc2)C/C=C\C[C@H]1CC(=O)N(CCO)Cc1ccccc1	5.8
COc1ccc(NC(C)=O)cc1S(=O)(=O)NCCc1ccccn1	-4.8
COc1ccc(OC)c(S(=O)(=O)Nc2c(C)n(C)n(-c3ccccc3)c2=O)c1	-14.2
CC(C)(C)c1ccc(S(=O)(=O)N2CCN(Cc3cc4c(cc3O)OCO4)CC2)cc1	-10.5
O=C(OCC(=O)c1ccc(Cl)s1)c1cncc(Br)c1	3.4
COc1ccc([C@H]2CC(=O)C=C(c3cccc(C#N)c3)C2)cc1	6.6
CC[C@@H]1C=C(C(=O)O)[C@H](c2ccc(F)cc2)N1S(=O)(=O)c1ccc(C)cc1	5.8
O=C(COC(=O)c1ccc(Br)o1)NCc1ccccc1Cl	9.5
NS(=O)(=O)c1cccc(NC(=O)COC(=O)CSCc2ccccc2)c1	-1.3
O=S(=O)(Nc1cc(Cl)ccc1-n1cncn1)c1cc(Br)ccc1Br	8.8
O=C(CSc1ccccc1)Nc1cccc(S(=O)(=O)N2CCOCC2)c1	1.3
CC(C)n1ncc2c(C(=O)NCC(=O)Nc3ccccc3Br)cc(C3CC3)nc21	13.5
O=C(O)c1ccccc1Nc1cccc(OCc2ccc3ccccc3n2)c1	-7.4
COc1ccc([C@H]2CC(=O)C=C(c3ccc(SC)cc3)C2)cc1OC	-4.0
CC(=O)Nc1ccc(S(=O)(=O)N2CCSc3ccccc32)cc1	-8.1
Cc1ccc(S(=O)(=O)N2[C@@H](c3ccc(Br)cc3)C(C(=O)O)=C[C@H]2CC2CCCC2)cc1	3.7
COc1ccccc1C(=O)NCCC(=O)Nc1ccc(S(=O)(=O)N2CCCC(C)C2)cc1 (centres undefined)	0.2
Cc1cccc(NC(=O)CN2CCN(C(=O)c3cnn(Cc4ccccc4)c3)CC2)c1C	-3.9
CCOc1cc(C=O)ccc1O	-2.3
C#CCOCCOCCOCCNc1nc(N2CCN(C(=O)Cn3cc(CCCN=C(N)N)nn3)CC2)nc(N2CCN(C(=O)[C@H](CCCCN)n3cc(CC(C)O)nn3)CC2)n1 (some centres undefined)	-9.2
Cc1ccc(NC(=O)CN2C(=O)NC3(CCCCCC3)C2=O)cc1Cl	-1.1
CCN(C[C@H]1N[C@@](Cc2ccccc2)(C(=O)OC)[C@H]2C(=O)N(C)C(=O)[C@@H]12)C(=O)c1ccc(C)cc1	-1.7
CN(Cc1ccccc1)C(=O)COC(=O)c1ccc(Br)c(S(=O)(=O)N2CCOCC2)c1	0.1
CC1CCCCC1NC(=O)c1ccc2c(c1)OCCO2 (centres undefined)	1.9
CCCCN(C(=O)CCCc1nc2ccccc2s1)c1c(N)n(CC(C)C)c(=O)[nH]c1=O	-2.6
O=C(COC(=O)c1ccc(OC(F)F)cc1)NC(=O)NC1CCCC1	1.4
COc1ccc(Cl)cc1NC(=O)CN(C)C(=O)c1cn2ccccc2n1	4.1
CC(C)(C)OC(=O)N1CCN(C(=O)c2[nH]cnc2C(=O)NCc2ccccc2)CC1	-3.3
CC(C)c1ccc(/C=C(\NC(=O)c2ccccc2)C(=O)NCCN2CCOCC2)cc1	?
CCCCC1CCc2[nH]nc(C(=O)O)c2C1 (centres undefined)	-0.3
Cc1cc(C)c2nc(N3C(=O)C(O)=C(C(=O)c4ccco4)C3c3ccc(O)cc3)sc2c1 (centres undefined)	15.5
C/C=C(/C)C(=O)O[C@@H]1c2c(ccc3ccc(=O)oc23)OC(C)(C)[C@@H]1OC(C)=O	-0.3
CCOc1ccc(/C=N/n2c(-c3ccccc3)n[nH]c2=S)cc1	5.5
O=C(NN=Cc1cccc([N+](=O)[O-])c1)c1cc(-c2cccnc2)nc2ccccc12	9.7
O=C(NCC(c1ccc(F)cc1)N1CCOCC1)c1ccc(-c2ccccc2)cc1 (centres undefined)	-4.0
COc1cc(C)c(C)cc1S(=O)(=O)NC1CC(C)(C)NC(C)(C)C1	-7.4

Next part
SMILES	Mtb bLac sens
CCCCNc1c(-c2ccc(OC)c(SC(C)CC)c2)nc2cc(C)ccn12 (centres undefined)	96.7
CCn1c(SCC(=O)Nc2cccc(S(=O)(=O)N(C)c3ccccc3)c2)nnc1C1CC1	4.5
O=C(Cc1ccc2c(c1)OCCO2)Nc1cccc(S(=O)(=O)N2CCOCC2)c1	-7.7
CC(Sc1nnc(-c2ccncc2)n1-c1ccc(F)cc1)C(=O)NC1CC1 (centres undefined)	-5.7
COc1ccc(OCC(=O)N2CCN(S(=O)(=O)c3ccc(Cl)s3)CC2)cc1	4.5
Cc1ccc(CNC(=O)Cn2cnc3c(NC(=O)OCc4ccccc4)ncnc32)o1	-4.4
Cc1cnc(NC(=O)CCc2ccccc2)s1	-6.2
COc1ccc(S(=O)(=O)N2CCCCCC2)cc1C(=O)N(C)Cc1ccc(Cl)cc1Cl	-6.1
Cc1nc(SCc2nc3ccccc3[nH]2)c2oc3ccc(Br)cc3c2n1	16.1
COc1cc2c(cc1OC)CN(C(=O)CSc1ccccc1C)CC2	-8.6
CCC(=O)NC(c1cc(Cl)c2ccccc2c1O)C1CC1 (centres undefined)	-1.2
CC(=O)N1CCc2cc(S(=O)(=O)NC3CCCCC3)ccc21	-3.4
CCOC(=O)c1cc(C(=O)OCC)c(=O)[nH]c1SCc1ccccc1	2.6
COc1ccc([C@@H]2CC=C(C(=O)O)[C@H](c3ccc(F)cc3)N2S(=O)(=O)c2ccccc2C)cc1	0.6
CCN(Cc1ccncc1)C(=O)c1cccc(S(=O)(=O)N2CCCCC2)c1	-7.0
COC(=O)C1=C(c2ccc(OC(F)(F)F)cc2)C[C@@H]2CC[C@H]1N2C(=O)NC(C)C	-6.9
O=C(NC1CCCC1)c1cccc(S(=O)(=O)Nc2ccccc2F)c1	0.4
N#Cc1cc([N+](=O)[O-])ccc1NC(=O)CSc1n[nH]c(=O)[nH]c1=O	-5.3
CC(C)N(Cc1ccccc1)C(=O)COC(=O)c1ccc(O)cc1	1.2
Cc1cc(C)c(C)c(OCCNCc2ccccc2)c1	1.1
CCN(Cc1nc2cc(Cl)ccc2c(=O)[nH]1)C(=O)c1nn(C)c(=O)c2ccccc12	12.8
CCOc1ccc(NC(=O)CN(C)C(=O)c2nc3nc(C)cc(C)n3n2)cc1OCC	1.1
CCN(C(=O)CN1CCCCC1)c1c(N)n(Cc2ccccc2)c(=O)[nH]c1=O	-2.6
CCC(CO)Oc1cc(NC(=O)c2cccc3ccccc23)c2ncn(C(C)C)c2c1 (centres undefined)	-1.1
CC1Cc2ccccc2N1S(=O)(=O)c1cccc(C(=O)NNC(=O)c2ccccc2F)c1 (centres undefined)	3.5
O=S(=O)(c1ccc(Cl)nc1)N1CCC(Cc2ccccc2)CC1	-5.9
COc1cccc(NC(=O)c2cc3ccccc3o/c2=N\O)c1	76.9
O=C(Nc1ccc(Cl)c(S(=O)(=O)N2CCOCC2)c1)c1cccs1	-3.4
CCOc1ccc(S(=O)(=O)NCCC(=O)NCC(c2ccco2)N2CCCCC2)cc1 (centres undefined)	-2.3
Cc1ccc(S(=O)(=O)N(C)C)cc1NC(=O)C(C)OC(=O)c1cc[n+]([O-])cc1 (centres undefined)	-0.5

Part of the list above, as comma-separated lines.
structure,Mtb bLac sens
CC(OC(=O)c1ccc([N+](=O)[O-])cc1)C(=O)NCC1CCCCC1 (centres undefined),19.4
CCC(CO)Oc1cc(NCc2cccc(F)c2)c2ncn(C(C)C)c2c1 (centres undefined),-0.5
CC(C)n1c(/C=C/[C@H](O)C[C@H](O)CC(=O)O)c(-c2ccc(F)cc2)c2ccccc21,-10.7

Remaining list, next part
SMILES	Mtb bLac sens
CC[C@@]1(C(=O)OC)N[C@H](CN(C)S(=O)(=O)c2ccccc2)[C@@H]2C(=O)N(Cc3ccccc3)C(=O)[C@@H]21	-0.6
Cc1ccccc1S(=O)(=O)N1[C@@H](c2ccc(F)cc2)C(C(=O)O)=CC[C@H]1c1ccc(Cl)cc1	5.1
CCCn1c(SCC(=O)N2CCc3ccccc32)n[nH]c1=O	-6.6
COC(=O)C1=C(c2ccc(OC(F)(F)F)cc2)C[C@@H]2CC[C@H]1N2C(=O)NCCCOC(C)C	10.8
COCc1c(C(=O)N2CCN(Cc3ccc4c(c3)OCO4)CC2)oc2ccccc12	-0.7
O=C(CN(C(=O)c1csnn1)c1ccc(F)c(Cl)c1)NC1CCCC1	2.4

This is a subset. The share of hits here may be higher or lower than overall.
